VCAM-1 imaging – inhibitors of TNFa-induced VCAM-1 surface display, imaging, high-content imaging, pooled HUVEC, TNFa stimulus (AID 456) | HUVEC TNFa-induced VCAM-1 surface expression, immunofluorescence imaging; numbers were filed only for top-ranked candidate wells | inhibition, % at 5 µM; hits with a dose series show IC50 in µM | 10,000 tested, 0.2% active;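 active means top tenth filtered wells with inhibition above zero that passed visual or statistical confirmation; inactive means the rest, including hits rejected on review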;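 further: 0% = stimulated vehicle wells and 100% = unstimulated cells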
VCAM-1 up imaging – enhancers of VCAM-1 display on endothelial cells, imaging, high-content imaging, pooled HUVEC, TNFa stimulus (AID 457); 10,000 tested, 0.2% active; calls only; Pooled HUVEC, TNFa-induced VCAM-1 immunofluorescence imaging; hits of this screen are not shown here;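 active means a top-ranked rise in VCAM-1 staining upheld on image or statistical review; inactive means the rest, including candidates rejected on review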;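 further: compounds tested at 5 µM in the well; cells exposed to compound for 24 hours before fixing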
VCAM-1 down – inhibitors of TNFa-induced VCAM-1 surface display, cell-based, plate reader, pooled HUVEC, TNFa stimulus (AID 454) | HUVEC TNFa-induced VCAM-1 surface immunofluorescence, plate reader; numbers were filed only for top-ranked candidate wells | inhibition, % at 5 µM | 10,000 tested, 0.2% active;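 active means compound among top-ranked inhibitors of TNF-induced VCAM-1 adhesion protein staining, with the hit upheld by image or statistical review; inactive means the rest, including hits rejected on review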;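 further: 0% = TNFa with vehicle and 100% = cells without TNFa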
FPRL1 ligand – human FPRL1 ligands by binding competition, primary screen, cell-based, FPR counter-screen, flow cytometry | N-formyl peptide receptor 2 (Homo sapiens), P25090 | FPRL1-expressing cells, fluorescent ligand binding inhibition | inhibition, %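 (tested at 6.7 µM)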 | 24,000 tested, 0.3% active;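 further: 0% = buffer alone and 100% = receptor blocker peptide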
Target sequence (P25090 whole entry, looked up): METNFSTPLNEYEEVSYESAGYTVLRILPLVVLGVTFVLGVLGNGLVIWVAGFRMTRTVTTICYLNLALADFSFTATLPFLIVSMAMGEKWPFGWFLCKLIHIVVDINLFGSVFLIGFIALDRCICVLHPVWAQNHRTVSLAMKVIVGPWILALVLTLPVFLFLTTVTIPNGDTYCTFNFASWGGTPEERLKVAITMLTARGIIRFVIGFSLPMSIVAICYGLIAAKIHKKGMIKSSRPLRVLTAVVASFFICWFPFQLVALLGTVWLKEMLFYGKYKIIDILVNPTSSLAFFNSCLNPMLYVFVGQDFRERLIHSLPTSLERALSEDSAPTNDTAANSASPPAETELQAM
FPR ligand – human FPR ligands by binding competition, primary screen, cell-based, FPRL1 counter-screen, flow cytometry | fMet-Leu-Phe receptor (Homo sapiens), P21462 | FPR-expressing cells, fluorescent ligand binding | inhibition, %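 (tested at 6.7 µM)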 | 24,000 tested, 0.74% active | AID 440, 2006;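 further: 0% = buffer wells and 100% = receptor blocker peptide wells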
Target sequence (P21462 whole entry, looked up): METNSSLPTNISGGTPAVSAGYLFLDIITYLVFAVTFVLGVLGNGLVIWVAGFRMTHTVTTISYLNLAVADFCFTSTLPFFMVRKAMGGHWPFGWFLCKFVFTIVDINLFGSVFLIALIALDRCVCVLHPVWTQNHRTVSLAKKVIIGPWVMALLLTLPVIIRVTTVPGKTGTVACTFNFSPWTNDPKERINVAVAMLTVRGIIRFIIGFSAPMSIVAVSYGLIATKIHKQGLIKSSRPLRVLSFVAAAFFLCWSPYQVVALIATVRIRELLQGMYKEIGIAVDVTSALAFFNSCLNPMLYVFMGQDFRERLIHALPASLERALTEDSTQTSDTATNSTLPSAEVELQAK
The depositor's hits bear a star; i = inactive; . = not tested or not shown.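 How the source made its calls, unless noted: active means mean above 30%; inconclusive means self-fluorescent; inactive means the rest.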 These rows are one share of the data; count on the stated rates, not on these rows.

SMILES	VCAM-1 imaging	VCAM-1 up imaging	VCAM-1 down	FPRL1 ligand	FPR ligand
CS(=O)(=O)N1CCCC(C(=O)N2CCC3(CC2)OCCO3)C1 (stereo not drawn)	.	.	.	0	-5
O=C1CC(c2ccccc2)CC(O)=C1C=NCCN1CCN(C(=O)Cc2ccccc2)CC1 (stereo not drawn)	i	i	i	1	1
O=C(c1cc(=O)[nH]c2ccc(Br)cc12)N1CCC2(CC1)OCCO2	.	.	.	0	0
C1=C(c2c[nH]c3ccccc23)CCNC1	.	.	.	-10	-20
CCOc1ccc(-n2c(O)c(C=NCCN3CCNCC3)c(=O)[nH]c2=O)cc1	i	i	i	4	2
CCC(COC(=O)c1cc(OC)c(OC)c(OC)c1)(c1ccccc1)N(C)C (stereo not drawn)	i	i	i	-2	-5
O=C(Cn1cc(C(=O)c2ccccc2)c2ccccc21)NCc1ccco1	i	i	i	0	-2
Cc1nc2cc(-c3cccc(F)c3)nn2c(C)c1CCC(=O)N1CCC2(CC1)OCCO2	.	.	.	0	7
CCOC(=O)c1c(C)c(C(=O)N2CCC3(CC2)OCCO3)c(C)n1CC	.	.	.	14	-1
COC(=O)C1C2c3ccccc3OC1(C)N=c1s/c(=C/c3cn(C)nc3C)c(=O)n12 (stereo not drawn)	.	.	.	-2	7
c1ccc2c3c([nH]c2c1)CNCC3	i	i	i	-5	2
CCCN1CCC2(CC1)NC(CO)(CO)CO2	.	.	.	2	3
CCN1CCN(Cc2cc(Br)cc(OC)c2O)CC1	i	i	i	0	-7
CCCCCCOc1ccc(CN2CCN(C)CC2)cc1	i	i	i	-2	-1
CCOC(=O)c1cc2c(cn1)[nH]c1ccccc12	i	i	i	1	-6
CC(=O)c1c(C)[nH]c(C(=O)N2CCC3(CC2)OCCO3)c1C	.	.	.	0	1
CCCC(=O)OCC[N+](C)(C)C	i	i	i	-3	2
CN1CCN(c2c[nH]c(=O)[nH]c2=O)CC1	i	i	i	3	-1
COc1ccc(-n2c(C)nc3cc(C(=O)N4CCC5(CC4)OCCO5)ccc32)cc1	.	.	.	-1	6
CCC(=O)Nc1cc(C(=O)N2CCC3(CC2)OCCO3)ccc1S(=O)(=O)c1ccc(C)cc1	.	.	.	-2	7
Cn1cc(CCC(=O)N2CCC3(CC2)OCCO3)c2ccccc21	.	.	.	4	-1
Cn1c(=O)cc(SCC(=O)N2CCC3(CC2)OCCO3)c2ccccc21	.	.	.	3	0
COC(=O)c1c(C)n(Cc2ccc3c(c2)OCO3)c2ccc(O)cc12	i	i	i	-7	4
Nc1ccc(C2(c3ccc(N)cc3)CN3CCC2CC3)cc1	i	i	i	1	0
COc1ccc(C(CC(=O)N2CCC3(CC2)OCCO3)NS(=O)(=O)c2ccc(F)cc2)cc1 (stereo not drawn)	.	.	.	-3	-2
C[C@@]1(CO)[C@H](O)CC[C@@]2(C)[C@H]1CC[C@H]1C[C@@H]3C[C@@]12CC[C@]3(O)CO	i	i	i	9	8
COc1ccc(CCNC(=O)c2c(N)n(CCN3CCOCC3)c3nc4ccccc4nc23)cc1	i	i	i	4	2
CC(C)CC12CN3CCN(CC(C3)/C1=N/O)C2	i	i	i	-2	4
CCN1CCN(C(=O)COc2cc(=O)n(CC)c3ccccc23)CC1	i	i	i	3	-3
CCC(=NCC1CCCO1)c1c(O)n(Cc2ccccc2)c(=O)[nH]c1=O (stereo not drawn)	i	i	i	-4	-2
O=C(C1CC(=O)N(c2ccc(F)c(Cl)c2)C1)N1CCC2(CC1)OCCO2 (stereo not drawn)	.	.	.	5	-6
COc1ccccc1CN1CCN(C(=O)Cc2ccccc2)CC1	i	i	i	9	-1
O=C(Cn1ncc2c3ccccc3n(Cc3ccc(F)cc3)c2c1=O)N1CCC2(CC1)OCCO2	i	i	i	-9	-1
CC(N)Cc1c[nH]c2cc3c(cc12)OCCO3 (stereo not drawn)	.	.	.	0	-9
O=C(Cn1ncc2ccsc2c1=O)N1CCC2(CC1)OCCO2	.	.	.	-6	-6
O=C1C2CCCN2C(c2cccc(Cl)c2)N1c1ccccn1 (stereo not drawn)	.	.	.	2	-7
COc1ccc(-c2nc(CSCC(=O)N3CCC4(CC3)OCCO4)c(C)o2)cc1OC	.	.	.	0	-2
O=C(CCN1C(=O)COc2ccccc21)N1CCC2(CC1)OCCO2	.	.	.	-1	1
Cc1ccccc1CS(=O)(=O)Cc1ccc(C(=O)N2CCC3(CC2)OCCO3)o1	.	.	.	6	0
c1ccc(C2CC3CC(c4ccco4)N2O3)cc1 (stereo not drawn)	i	i	i	2	-10
COC(=O)COc1cc(C)cc2oc(=O)c3c(c12)CCCC3	.	.	.	-2	-12
N=c1c[n+](CC23CC4CC(CC(C4)C2)C3)[n-]o1	.	.	.	-6	0
c1cc2n(c1)-c1c(ccc3c1OCO3)CNC2c1ccc2c(c1)OCO2 (stereo not drawn)	.	.	.	-3	-2
c1ccc2c(c1)[nH]c1cnccc12	i	i	i	-4	1
COC(=O)c1cncn1C(C)c1ccccc1 (stereo not drawn)	i	i	i	8	0
C(=NC12CN3CN(CN(C3)C1)C2)c1cccnc1	.	.	.	-4	-9
O=C1C2CCCN2C(c2ccccc2)N1c1ccccn1 (stereo not drawn)	.	.	.	-9	-1
O=c1c2ccccc2nc(N2CCCC2)n1-c1ccc(Cl)cc1	.	.	.	8	-3
CCOC(=O)C1SC2(C(F)F)CC1(O)c1c(c(OC)c3occc3c1OC)O2 (stereo not drawn)	i	i	i	-1	2
Cc1nc2cc(C(=O)N3CCC4(CC3)OCCO4)ccc2n1-c1cccc(F)c1	.	.	.	4	2
COCCn1cc(C(=O)N2CCC3(CC2)OCCO3)c2c3ccccc3n(C)c2c1=O	.	.	.	-1	1
O=C(O)C1(c2ccc(Cl)cc2)CCC1	i	i	i	11	8
C#CCN1C(=O)C2(C(C#N)=C(N)OC(C)=C2C(=O)OCc2ccccc2)c2ccccc21 (stereo not drawn)	.	.	.	6	-6
COc1ccc(N2CCN(C(CNC(=O)Oc3ccccc3)c3cccnc3)CC2)cc1 (stereo not drawn)	.	.	.	0	-5
CN(C)c1cc(N)c2c(n1)CCC2 (tested in a mixture with another compound)	i	i	i	1	-6
Cc1ccc(S(=O)(=O)Cc2ccc(C(=O)N3CCC4(CC3)OCCO4)o2)cc1	i	i	i	0	-4
COC(=O)CC1(Cc2ccccc2)C(=O)NC(=O)NC1=O	i	i	i	2	4
COC(=O)N(c1ccc(OC)cc1)P1(=S)OCCC(C)O1 (stereo not drawn)	.	.	.	5	-1
CCOc1ccc(C2SCC(=O)Nc3c2c(=O)[nH]n3C2CCCCCC2)cc1 (stereo not drawn)	i	i	i	3	-4
CCN1CC=C(c2c[nH]c3ccccc23)CC1	.	.	.	-9	-7
Continuation.
SMILES	VCAM-1 imaging	VCAM-1 up imaging	VCAM-1 down	FPRL1 ligand	FPR ligand
N#Cc1ccccc1Cn1cc(C(=O)C2CC2)c2ccccc21	i	i	i	2	-2
CCOC(=O)/C(CCCN(CC)CC)=N\O	.	.	.	-15	-2
COc1ccccc1CN1CCN(C(=O)COc2cccc(C)c2)CC1	.	.	.	-5	2
O=C(CN1C2CCC1CC(O)(c1cccnc1)C2)Nc1ccc2c(c1)OCO2 (stereo not drawn)	i	i	i	0	-3
Cc1ccc(CCN2CC(C(=O)N3CCC4(CC3)OCCO4)CC2=O)cc1 (stereo not drawn)	.	.	.	2	4
CCC(C)NC(=O)c1c(N)n(CC2CCCO2)c2nc3ccccc3nc12 (stereo not drawn)	i	i	i	-6	3
COc1ccc(Nc2ncc(C(=O)N3CCC4(CC3)OCCO4)c3ccccc23)cc1	.	.	.	-1	-5
CCOC(=O)C1C(=O)NC23CCCC2C1c1ccccc1O3 (stereo not drawn)	.	.	.	3	-3
Nc1ccnn1C1CCNCC1	i	i	i	0	1
CC(=O)Nc1cc(C(=O)N2CCC3(CC2)OCCO3)ccc1S(=O)(=O)c1ccc(C)cc1	.	.	.	5	-4
OC(CNC1CCCCC1)c1ccccc1 (stereo not drawn)	i	i	i	1	5
CCOCC(=O)NC1CCSC1=O (stereo not drawn)	i	i	i	-2	0
CCOP(=S)(OCC)c1ccc(N(C)C)cc1	i	i	i	9	-7
Cc1oc2ccc(OC(=O)N(C)C)cc2c1C(=O)OC(C)C	i	i	i	-2	-2
O=C(O)CCCc1ccc(N(CCCl)CCCl)cc1	i	i	i	8	-6

The closing three compounds of the section before lead into the next.
SMILES	VCAM-1 imaging	VCAM-1 up imaging	VCAM-1 down	FPRL1 ligand	FPR ligand
CCOP(=S)(OCC)c1ccc(N(C)C)cc1	i	i	i	9	-7
Cc1oc2ccc(OC(=O)N(C)C)cc2c1C(=O)OC(C)C	i	i	i	-2	-2
O=C(O)CCCc1ccc(N(CCCl)CCCl)cc1	i	i	i	8	-6
C[C@H]1CCC/C=C/C2C[C@H](O)CC2[C@H](O)/C=C/C(=O)O1 (stereo partly drawn)	i	i	i	-3	-5
O=c1cc(C2CCNCC2)[nH][nH]1	.	.	.	-13	-10
CNCC(O)c1cccc(OC(=O)c2ccccc2C)c1 (stereo not drawn)	.	.	.	5	-3
COP(=O)(OC)C(O)C(Cl)(Cl)Cl (stereo not drawn)	i	i	i	6	6
COC(=O)C(O)(c1cn(C)c2ccccc12)C(F)(F)F (stereo not drawn)	.	.	.	-3	-3
Cc1cc(C)n2nc(SC(C)C(=O)N3CCC4(CC3)OCCO4)nc2n1 (stereo not drawn)	.	.	.	-6	2
O=C(COc1ccc(Br)cc1)N1CCN(Cc2ccncc2)CC1	.	.	.	-3	7
O=C(Cn1cnc2ccccc2c1=O)NCC(=O)N1CCC2(CC1)OCCO2	.	.	.	-4	-2

Reprinted at random: 6 compounds from above, in no set order.
SMILES	VCAM-1 imaging	VCAM-1 up imaging	VCAM-1 down	FPRL1 ligand	FPR ligand
CNCC(O)c1cccc(OC(=O)c2ccccc2C)c1 (stereo not drawn)	.	.	.	5	-3
COP(=O)(OC)C(O)C(Cl)(Cl)Cl (stereo not drawn)	i	i	i	6	6
O=C(COc1ccc(Br)cc1)N1CCN(Cc2ccncc2)CC1	.	.	.	-3	7
COC(=O)C(O)(c1cn(C)c2ccccc12)C(F)(F)F (stereo not drawn)	.	.	.	-3	-3
C[C@H]1CCC/C=C/C2C[C@H](O)CC2[C@H](O)/C=C/C(=O)O1 (stereo partly drawn)	i	i	i	-3	-5
O=C(Cn1cnc2ccccc2c1=O)NCC(=O)N1CCC2(CC1)OCCO2	.	.	.	-4	-2
